# FGF22 binding – shifts melting point of recombinant human FGF22; Q9HCT0; recombinant FGF22 thermal shift, SYPRO orange fluorescence; percent of sucrose octasulfate shift, DMSO zero; calls only at 9.99 µM; actives 1.5% (n = 340,000);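 active = melting point raised past a set limit in the mean and every replicate; three in four hits are not shown here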
# Target sequence (Q9HCT0 whole entry, looked up): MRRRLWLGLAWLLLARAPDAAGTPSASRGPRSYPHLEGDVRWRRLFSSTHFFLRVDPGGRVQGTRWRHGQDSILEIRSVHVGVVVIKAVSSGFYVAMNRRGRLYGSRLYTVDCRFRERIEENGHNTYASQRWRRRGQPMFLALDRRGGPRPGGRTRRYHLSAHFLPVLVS
# ALR inh – human ALR oxidase inhibition via reduced H2O2; P55789; purified ALR, DTT oxidation, H2O2 HRP-luminol luminescence; inhibition, % (concentration not given with the values); actives 3.8% (n = 290,000); AID 485317;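 active = mean and each replicate at 75% or more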;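 note: stock transfer was 7.5 nL into about 7.5 µL; 0% = neutral wells and 100% = wells with inactivated enzyme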
# Target sequence (P55789 whole entry, looked up): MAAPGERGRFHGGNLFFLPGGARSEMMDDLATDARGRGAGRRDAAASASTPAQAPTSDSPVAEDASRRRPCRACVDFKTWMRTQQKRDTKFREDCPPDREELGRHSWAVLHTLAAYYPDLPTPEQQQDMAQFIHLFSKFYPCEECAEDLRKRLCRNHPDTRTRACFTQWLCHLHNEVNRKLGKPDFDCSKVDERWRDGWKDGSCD
# HNF4A DNA FP – change in binding of human HNF4 alpha to DNA | P41235 | HNF4a-FITC DNA binding, fluorescence polarization, 1 h | activity change, % at 10 µM | actives 0.3% (n = 360,000) | AID 1224865; in the data active = activity change above about 30%, passing the limit was not always enough;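 note: controls were the assay level and a saturating level of protein; the project sought stronger binding though the title names inhibitors; some compounds called inactive have numbers as strong as hits; positive values seem to mean higher polarization but the record does not say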
# E coli growth – inhibitors of Escherichia coli growth. OD600, 23 h; hits give low values. OD600 absorbance (concentration not given with the values). actives 0.21% (n = 330,000);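 active = OD600 absorbance below the run mean of sample wells minus 3.6 SD, in any replicate, cut at about 0.56 in these data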;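 note: stock transfer was 300 nL into about 60 µL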
# B2AR ag – activates human beta-2 adrenergic receptor causing internalization. P07550. Am2.2-beta2AR cells, FAP receptor internalization, flow cytometry; reference of the scale not given here. response, % (concentration not given with the values). actives 0.43% (n = 340,000);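 active = response above a set limit, near 3 SD of response in nonfluorescent compounds, cut at about 42% in these data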;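 note: stock transfer was 100 nL into about 11 µL; a reference agonist was the positive control; negative values mostly stem from fluorescent compounds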
# Ecoli rRNA inh – selective bacterial rRNA inhibition in E. coli | GFP signal change (wild-type ribosome), % (test concentration not listed) | actives 1.6% (n = 350,000) | E. coli WT GFP vs humanized-ribosome RFP mutants, fluorescence, 24 h; hits give low values; DMSO median 0, no signal -100 | AID 720706;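 active = significant combined selectivity score with lowered wild-type GFP, culture density cut under 30%, mutant RFP and density less affected; inactive = any of these conditions unmet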; note: one replicate is shown; some compounds called inactive have numbers as strong as hits
# UCH37 inh – inhibitors of human deubiquitinating enzyme UCH37 | actives 0.33% (n = 330,000) | AID 588478 | inhibition, % (concentration not given with the values) | purified proteasome/UCH37, Ub-AMC cleavage fluorescence;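 active = mean of two replicates above 20%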;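 note: 0% = compound-free wells with enzyme and 100% = wells lacking proteasome; stock transfer was 100 nL into about 20 µL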
# Target sequence (Q9Y5K5 whole entry, looked up): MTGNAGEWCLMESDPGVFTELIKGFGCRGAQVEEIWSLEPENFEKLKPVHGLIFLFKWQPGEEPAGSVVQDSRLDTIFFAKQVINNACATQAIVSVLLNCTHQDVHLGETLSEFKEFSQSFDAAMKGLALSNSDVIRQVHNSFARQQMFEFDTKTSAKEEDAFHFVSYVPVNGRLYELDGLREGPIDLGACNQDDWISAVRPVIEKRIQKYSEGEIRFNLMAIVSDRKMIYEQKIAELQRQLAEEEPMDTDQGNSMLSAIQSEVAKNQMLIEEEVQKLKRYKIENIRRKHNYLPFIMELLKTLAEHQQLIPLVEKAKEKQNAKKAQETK
#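 Test system – human UCH37 enzyme supplied as purified proteasome complex · Incubation – 30 min preincubation with enzyme, 25 min cleavage at room temperature · Detection – AMC fluorescence from Ub-AMC cleavage, excitation 355 nm, emission 460 nm · Benchmarks – no-proteasome wells (full inhibition) and compound-free wells (no inhibition)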
# Ecoli rRNA inh OD600 – second read-out of Ecoli rRNA inh, no call of its own (marks repeat the call); OD600 change, %; measured here: OD600 growth;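 optical density of the mix in the first replicate; 0 = DMSO median and -100 = no signal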
# Ecoli rRNA inh RFP – second read-out of Ecoli rRNA inh, no call of its own (marks repeat the call); RFP signal change, %; measured here: RFP humanized mutant strains;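 first replicate; 0 = DMSO median and -100 = no signal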
# An asterisk follows results filed as active; i = inactive; . = not tested or not shown; + = active, no number; & = joins results of further samples.
E coli growth,ALR inh,UCH37 inh,HNF4A DNA FP,Ecoli rRNA inh RFP,Ecoli rRNA inh OD600,B2AR ag,FGF22 binding,Ecoli rRNA inh,structure
0.69,.,2.1,1.5,.,.,-8,.,.,O=C(CN1N=C(C(F)(F)F)CC1(O)c1ccc([N+](=O)[O-])cc1)c1ccccc1 (stereo unspecified)
0.7,-4,-3.6,0.7,.,.,-4,.,.,Cc1ccccc1-n1ccnc1SCC(=O)O
0.75,-3,-0.3,6.5,2.5*,-14*,24,i,-21*,O=C(OCc1c(-c2ccccc2)ncc2ccccc12)c1cccs1
0.7,-8,4.7,-1.3,-1.4,9,10,i,-1,CN(CC(=O)N(C)CC(=O)Nc1c(Cl)cccc1Cl)Cc1ccccc1F
.,.,.,2.6,-5.1,3,.,i,4,O[C@H]1C[C@H](c2ccc(Cl)cc2)N(CC2CCCCC2)C[C@@H]1n1cc(C2CC2)nn1
.,-7,.,-1.5,0.2,12,-8,i,11,Cc1ccc(NC(=O)C2Cc3ccccc3O/C2=N\O)cc1C (stereo unspecified)
0.69,0,1.1,0.6,1.9,11,-8,i,20,COc1ccc(C(=O)COC(=O)c2nc3nccc(C)n3n2)cc1F
0.7,0,5.4,-4.3,.,.,3,.,.,COc1cccc(NC(C)C(=O)N2CC(C)OC(C)C2)c1 (stereo unspecified)
.,2,2.5,3.6,2.0,15,15,i,19,COc1ccc(N/C=C(\C2OC(=O)c3ccccc32)[N+](=O)[O-])cc1 (stereo unspecified)
0.67,-3,4.0,6.6,0.9,10,0,i,16,CC(=O)NS(=O)(=O)c1cccnc1Nc1cccc(Cl)c1C
0.68,.,-4.6,0.1,0.7,8,5,i,0,Cc1cccc(NC(=O)/C(C#N)=C/c2ccccc2O)n1
0.71,5,-0.5,5.7,-2.1,-1,-2,i,5,COc1ccc(C(CNC(=O)COc2ccccc2OC)N2CCCCC2)cc1 (stereo unspecified)

# As entered above.
# Result for `COc1ccc(C(CNC(=O)COc2ccccc2OC)N2CCCCC2)cc1` (stereo unspecified) in UCH37 inh: -0.5
# Result for `COc1ccc(N/C=C(\C2OC(=O)c3ccccc32)[N+](=O)[O-])cc1` (stereo unspecified) in Ecoli rRNA inh: 19

# (more compounds)
E coli growth,ALR inh,UCH37 inh,HNF4A DNA FP,Ecoli rRNA inh RFP,Ecoli rRNA inh OD600,B2AR ag,FGF22 binding,Ecoli rRNA inh,structure
0.74,.,-0.1,34*,.,.,-50,.,.,Cc1sc2nc(CSc3nc4ccccc4c(=O)n3CCCN3CCOCC3)[nH]c(=O)c2c1C
0.74,-5,-35,3.0,0.5,13,6,i,4,COc1cc(F)cc(-c2ccc3c(c2)c(C#Cc2ccsc2)c(-c2cc(OC)cc(OC)c2)n3C)c1
.,.,.,-5.7,-2.8,24,.,i,10,C[C@@H]1CN([C@@H](C)CO)C(=O)CCCn2nncc2CO[C@H]1CN(C)S(=O)(=O)c1ccccc1C#N
.,-4,.,1.6,1.3,19,-5,i,15,Cc1ccc(/C=N\NC(=O)CCc2n[nH]c(=O)[nH]c2=O)o1
0.71,14,0.1,-5.9,4.7,12,-9,i,12,COc1ccc(NC(=O)CN(C)C(=O)Cc2ccsc2)cc1
0.68,-7,-1.3,-3.5,.,.,-7,.,.,O=C(c1ccc(Cl)cc1)C1CCN(C(=O)N2CCOCC2)CC1
.,-16,.,1.0,0.1,-10,27,i,-1,CC1CCCN(CCCNC(=O)c2ccc3c(c2)N(Cc2ccccc2F)C(=O)c2ccccc2S3(=O)=O)C1 (stereo unspecified)
0.72,-8,1.9,-2.0,1.6,14,6,i,3,CCOC(=O)c1[nH]c2c(c1-c1ccccc1)C(=O)CC(c1ccccc1)C2 (stereo unspecified)
0.7,-7,-1.4,1.6,.,.,4,.,.,Cc1ccc(OCC(=O)N2CCN(C(=O)c3cccs3)CC2)cc1
0.65,-2,3.9,1.6,13,-18,-2,i,1,COc1ccc(CC(=O)Nc2ccc(C)c(S(=O)(=O)N3CCCCCC3)c2)cc1
.,.,.,2.0,1.6,20,29,i,18,O=S(=O)(/C=C/C=C/S(=O)(=O)c1ccccc1)c1ccccc1
0.74,-5,3.8,4.6,.,.,11,.,.,O=S(=O)(NCCc1ccccn1)c1ccc(F)c(F)c1
0.68,-23,1.2,-5.4,1.3,-17,-3,i,-9,CCOc1cc(/C=C/C(=O)N(CC)CC(=O)NCc2cccs2)cc(Cl)c1OC
0.81,.,2.0,-1.7,.,.,-5,.,.,Clc1ccc(-c2nnc(C34CC5CC(CC(C5)C3)C4)o2)cn1
0.7,74,-15,-1.6,.,.,4,.,.,COc1ccc(CCNc2oc(-c3ccccc3OC)nc2C#N)cc1
0.68,-5,1.3,-1.8,.,.,-1,+,.,Cc1ccc(OCCCC(=O)Nc2ccc(S(=O)(=O)N3CCOCC3)cc2)cc1
0.67,-1,1.2,0.5,-0.4,4,-7,i,7,CC1(C)NC(=O)N(CC(=O)N2CCCC(C(F)(F)F)C2)C1=O (stereo unspecified)
0.61,-13,-96,4.7,3.5,-18,-8,i,-6,Cc1cc(C)c2c(SC(C)C)nc(N)nc2n1
0.67,-1,1.3,-0.4,-0.6,1,-3,i,-1,O=C(c1cccc(OC2CCN(Cc3cc(F)cc(F)c3)CC2)c1)N1CCCC1
0.68,-6,4.8,-0.8,2.0,2,-7,i,6,COc1ccc(NC(=O)CCS(=O)(=O)c2ccc3c(c2)CCN3C(C)=O)cc1
.,3,1.6,-6.4,-0.8&7.8,12&10,-3,i,4&4,CC(C)NC(=O)N(C)C[C@H]1Oc2ccc(NC(=O)Nc3ccccc3)cc2C(=O)N([C@@H](C)CO)C[C@@H]1C
.,4,.,2.1,1.5,-6,0,i,-6,Cc1nn(Cc2ccc(Cl)cc2)c(Cl)c1/C=N/NC(=O)c1cccnc1
.,4,.,2.8,-3.7,-9,-5,+,-6,COc1ccc(S(=O)(=O)Oc2cccc(/C=N/N=C3/NC(=O)C(CC(=O)O)S3)c2)cc1 (stereo unspecified)
0.72,.,0.9,12,-0.7,20,9,i,3,COc1cc(OC)c(OC)cc1CNC(=O)c1cccc(S(=O)(=O)N2CCc3ccccc3C2)c1
0.65,.,-5.0,0.2,-0.9,4,-2,i,22,CS(=O)(=O)N1CCC(C(=O)NCCN2CCN(Cc3ccccc3)CC2)CC1
0.7,-2,0.4,4.1,2.1,-23,-2,i,2,CCC(NC(=O)c1cc(COc2cc(C)c(Cl)c(C)c2)on1)c1ccncc1 (stereo unspecified)
0.67,-56,2.9,3.5,5.2,6,-5,i,-3,COc1cc2c(cc1OC)CN(C(=O)CNS(=O)(=O)c1ccc(C)c(C)c1)CC2
0.76,4,4.8,-2.0,.,.,2,.,.,CCc1c(O)nc2sc3ccccc3n2c1=O
0.66,2,1.3,-1.8,4.5,5,-2,i,13,COCCCN1C(=O)N(c2ccc(F)cc2)C(=O)C1CC(=O)Nc1ccc(OC)cc1 (stereo unspecified)
0.65,.,2.0,0.0,0.5,-14,13,i,2,Cc1ccc(S(=O)(=O)N2[C@@H](c3ccc4c(c3)OCO4)C(C(=O)O)=C[C@H]2CC2CCCC2)cc1
0.72,-2,6.8,10,-1.1,9,4,i,8,CC(C)N(CCCNC(=O)Cn1c(=O)c2cccn2c2ccccc21)Cc1ccccc1
0.64,19,6.3,1.0,-0.1,6,0,i,4,CCC(NC(=O)c1cncc(Br)c1)c1ccccc1 (stereo unspecified)
0.69,-12,-6.0,-0.9,.,.,1,.,.,CC(C)CC(NC(=O)C1CCCCC1)C(=O)N1CCN(c2ccccn2)CC1 (stereo unspecified)
0.67,.,0.9,0.1,-0.3,-2,-2,i,8,CCOc1ccc(NC(=O)CNC(=O)c2ccco2)cc1
0.66,8,0.2,-0.6,7.4,-22,4,i,3,COc1ccccc1N1CCN(C(=O)CNS(=O)(=O)c2ccc(Br)s2)CC1
0.73,-5,2.4,-2.6,-1.9,7,3,i,3,CN(C)C1(CNC(=O)CC(NC(=O)c2ccccc2Cl)c2ccccc2)CCCCC1 (stereo unspecified)
0.69,.,2.3,1.3,-4.2,-11,-6,i,-4,Cc1cc(C(=O)Nc2ccccc2N2CCOCC2)no1
0.68,-3,5.5,-4.8,0.2,-14,9,i,2,COc1cc2ccccc2cc1C(=O)N(CCN(C)C)c1nc2c(C)cccc2s1
0.7,0,1.3,-0.6,-2.5,7,0,.,3,CNS(=O)(=O)c1cccc(C(=O)OCC(=O)NCc2ccccc2)c1
0.69,-6,5.5,-3.5,0.4,-12,9,i,-2,CCOC(=O)C1CCN(S(=O)(=O)c2ccc3c(c2)NC(=O)CS3)CC1
0.66,-9,0.1,0.6,-0.2,6,3,i,4,Cc1ccc(-n2c(C)nnc2SCC(=O)N2CCOCC2)cc1
0.68,3,-1.1,4.6,-1.9,17,10,i,34,O=C(NC1CCCCC1)c1cc(-c2ccco2)on1
0.72,7,5.6,0.2,.,.,-1,.,.,CC(C)c1c(O)nc(SCCC(=O)O)[nH]c1=O
0.67,.,2.7,-2.0,-3.7,-4,10,i,-4,CC(=O)N1CCN(S(=O)(=O)c2cccc(C(=O)OCc3ccc(C(C)(C)C)cc3)c2)CC1
.,.,.,0.2,-3.3,7,-1,i,6,Cc1cccc(C(=O)N/N=C2\CS(=O)(=O)N(C)c3ccsc32)c1
0.73,3,5.0,-0.9,3.3,6,4,i,4,CCCC(=O)Nc1cc(OC)c(C(=O)OC)cc1Cl
.,3,.,0.9,2.9,12,-5,i,21,O=C(Nc1ccc(S(=O)(=O)Nc2ncccn2)cc1)c1ccccc1Br
0.71,-1,-35,1.9,.,.,-4,.,.,CCc1nc2ccccc2n1Cc1cc(=O)n2cc(C)ccc2n1
0.68,.,2.0,-0.6,.,.,3,.,.,COc1ccc(-c2sccc2C(C)C(=O)O)cc1 (stereo unspecified)
0.7,-4,2.6,1.8,0.1*,-14*,-12,i,-21*,CCOc1ncccc1C(=O)OCC(=O)NCCCc1ccccc1
0.68,11,5.2,0.9,-10.0,-3,-11,i,-9,Cn1c(Nc2cccc(Cl)c2)nc2ccccc21

# A different layout for some results above.
Molecule | E coli growth | ALR inh | UCH37 inh | HNF4A DNA FP | Ecoli rRNA inh RFP | Ecoli rRNA inh OD600 | B2AR ag | FGF22 binding | Ecoli rRNA inh
CNS(=O)(=O)c1cccc(C(=O)OCC(=O)NCc2ccccc2)c1 | 0.7 | 0 | 1.3 | -0.6 | -2.5 | 7 | 0 | . | 3
CCOC(=O)C1CCN(S(=O)(=O)c2ccc3c(c2)NC(=O)CS3)CC1 | 0.69 | -6 | 5.5 | -3.5 | 0.4 | -12 | 9 | i | -2
Cc1ccc(-n2c(C)nnc2SCC(=O)N2CCOCC2)cc1 | 0.66 | -9 | 0.1 | 0.6 | -0.2 | 6 | 3 | i | 4
O=C(NC1CCCCC1)c1cc(-c2ccco2)on1 | 0.68 | 3 | -1.1 | 4.6 | -1.9 | 17 | 10 | i | 34
CC(C)c1c(O)nc(SCCC(=O)O)[nH]c1=O | 0.72 | 7 | 5.6 | 0.2 | . | . | -1 | . | .
CC(=O)N1CCN(S(=O)(=O)c2cccc(C(=O)OCc3ccc(C(C)(C)C)cc3)c2)CC1 | 0.67 | . | 2.7 | -2.0 | -3.7 | -4 | 10 | i | -4
Cc1cccc(C(=O)N/N=C2\CS(=O)(=O)N(C)c3ccsc32)c1 | . | . | . | 0.2 | -3.3 | 7 | -1 | i | 6
CCCC(=O)Nc1cc(OC)c(C(=O)OC)cc1Cl | 0.73 | 3 | 5.0 | -0.9 | 3.3 | 6 | 4 | i | 4
O=C(Nc1ccc(S(=O)(=O)Nc2ncccn2)cc1)c1ccccc1Br | . | 3 | . | 0.9 | 2.9 | 12 | -5 | i | 21
CCc1nc2ccccc2n1Cc1cc(=O)n2cc(C)ccc2n1 | 0.71 | -1 | -35 | 1.9 | . | . | -4 | . | .

# Compound activity: PubChem BioAssay, several laboratories

# Some of the compounds tested; rates above refer to the full screens.
